VDR inh: vitamin D3 receptor (human) inhibition. P11473. VDR-SRC2-3 peptide fluorescence polarization, 2 h. Potency, µM, for the others: max response, negative = inhibition, actives largely listed as inhibitors. 0.93% of 400,000 active. AID 504847; active = well fitted inhibition curve with a large enough effect; inconclusive = small, poorly fitted or top-dose-only effect, or another doubt; inactive = no such curve, though single readings can be large or run the other way; note: series mostly up to about 120 µM
Target sequence (P11473 whole entry, looked up): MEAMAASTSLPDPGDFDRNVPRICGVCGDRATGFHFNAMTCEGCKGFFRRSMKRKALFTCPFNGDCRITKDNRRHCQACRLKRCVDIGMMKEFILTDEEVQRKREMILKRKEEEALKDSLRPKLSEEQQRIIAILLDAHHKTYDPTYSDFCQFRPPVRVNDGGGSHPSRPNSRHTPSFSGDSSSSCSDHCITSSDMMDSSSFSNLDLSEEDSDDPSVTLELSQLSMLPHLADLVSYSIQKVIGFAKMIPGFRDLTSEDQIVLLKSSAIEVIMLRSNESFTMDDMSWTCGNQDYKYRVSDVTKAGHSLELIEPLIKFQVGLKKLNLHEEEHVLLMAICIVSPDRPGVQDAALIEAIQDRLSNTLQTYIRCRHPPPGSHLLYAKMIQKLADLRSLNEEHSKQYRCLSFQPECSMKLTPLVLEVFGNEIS
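VDR–SRC2-3 interaction, FP format. Cmpds 23 nl via pintool, brief spin, 2 h ambient incubation.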
Starred values were filed as active, the others as inactive; u = inconclusive; & = joins results of further samples; [ ] = dose if it differs, or a comment. % is set by controls: 0 for no effect and ±100 for the full control effect; potency is the fitted concentration of half-maximal effect. The list is partial. The share of hits here may be higher or lower than overall.

A first look (2 entries):
SMILES	VDR inh
COc1cc(-c2onc3ccc(Br)cc23)cc(OC)c1OC	-10.4%
COC(=O)C1=C(C)Nc2ncnn2C1c1ccccn1 (centres undefined)	3.4%

The listing, from the start:
SMILES	VDR inh
COc1cc(-c2onc3ccc(Br)cc23)cc(OC)c1OC	-10.4%
COC(=O)C1=C(C)Nc2ncnn2C1c1ccccn1 (centres undefined)	3.4%
Cc1c(Cl)cccc1NC(=O)CC1NCCNC1=O (centres undefined)	2.8%
COc1cccc(OC)c1C(=O)NCCSC1CCCCC1	u
C/C(=N/NC(=O)c1ccc(Br)o1)c1cccc(NC(=O)c2ccc(F)cc2)c1	-21.8%
N#C/C(=C\c1c[nH]c2ccccc12)C(N)=O	-18.8%
Cc1cccnc1CN1CCN(C(=O)CCc2nnc(CCc3ccccc3)o2)CC1	-12.4%
CCOC(=O)C1=CN(Cc2cccc(F)c2)S(=O)(=O)N(CC)C1c1ccccc1 (centres undefined)	5.8%
COc1ccc(C(=O)Nc2ccc(S(=O)(=O)Nc3nccc(C)n3)cc2)cc1	3.3%
CCS(=O)(=O)N1CCC(C(=O)Nc2cc([N+](=O)[O-])ccc2C)CC1	2.3%
COc1cc2c(cc1OC)-c1cc3ccc4c(c3c[n+]1CC2)OCO4	3.5%
CCc1nc(N2CCC3(CC2)OCCO3)c2nnn(Cc3ccccc3Cl)c2n1	-12.8%
COc1ccc(Cn2nnnc2CN2CCc3ccccc3C2)cc1	-6.5%
O=C(CCNC(=O)c1ccco1)Nc1cccc(Br)c1	2.7%
CC(C)(C)SCCNC(=O)c1ccc(Cl)c(S(=O)(=O)N2CCOCC2)c1	5.4%
O=[N+]([O-])c1ccc(O)c(/C=N/Nc2nn[nH]n2)c1	17.2%
CN(C(=O)CN1C(=O)NC(C)(CCc2ccccc2)C1=O)c1ccccc1 (centres undefined)	4.9%
COc1ccc(NS(=O)(=O)c2cccc(C(=O)N3CCN(c4ccccc4O)CC3)c2)cc1	-7.1%
Oc1ccc(-c2n[nH]c(C(F)(F)F)c2-c2ccccc2)c(O)c1	-11.2%
O=C(CSc1ncn[nH]1)Nc1ncc(C(F)(F)F)cc1Cl	7.4%
CCOc1ccc(CCNC(=O)c2cccc(S(=O)(=O)N3CCN(C(C)=O)CC3)c2)cc1OCC	-10.0%
Cc1cccc(C)c1NC(=O)C1(N(C(=O)c2ccccn2)c2ccc(O)cc2)CCCCC1	4.9%
COc1cccc2cccc(/C=N/n3cnnc3)c12	-1.1%
COc1ccc(NC(=O)c2cc(-c3ccccc3)on2)cc1OC	-0.2%
CC(OC(=O)Nc1ccccc1)C(=O)OC1CCCCC1 (centres undefined)	-11.9%
CCOC(=O)c1cnc(SCc2ccc(C(C)(C)C)cc2)nc1N	12.0%
COc1ccc2c(c1)CC/C(=C/c1ccco1)C2=O	-1.6%
COCCn1c(-c2ccccc2Cl)nc2c(c(=O)c3ccccc3n2C)c1=O	-10.3%
CC(Oc1ccc(Br)cc1Br)C(=O)Nc1cccnc1 (centres undefined)	4.2%
COc1cc2c3nnc(-c4ccc(F)cc4)c-3cn(Cc3ccccc3F)c2cc1OC	42.0%[activator]
O=C(COC(=O)COc1ccc(Cl)cc1Br)NC1CC1	-7.9%
Cc1cccc(Oc2cc(N)cc([N+](=O)[O-])c2)c1	-13.6%
COc1ccc(C(=O)NC(=C(Cl)Cl)S(=O)(=O)c2ccc(C)cc2)cc1	-4.7%
Cc1ccc(CNC(=O)C2CC(c3ccccc3F)=NO2)cc1 (centres undefined)	-7.8%
CCc1ccccc1NC(=O)CSc1ncc2c(n1)-c1ccccc1N(Cc1ccc(C)cc1)S2(=O)=O	0.6%
Cc1ccc(NC(=O)c2cc(S(=O)(=O)Nc3ccc(C)cc3)cs2)cc1	-2.3%
CCOC(=O)c1c(NC(=O)CSc2nnc(C)s2)sc2c1CCN(C)C2	-13.2%
COc1ccc(CCNC(=O)c2cccnc2)cc1	3.0%
O=C1/C(=C\c2c(NCCOCCO)nc3ccccn3c2=O)SC(=S)N1Cc1ccco1	15.8%
CN(CC(=O)NCCCc1ccccc1)Cc1ccc(Br)cc1	-14.4%
CCCCC(=O)Nc1nn(CC(C)C)c2nc3ccccc3cc12	13.6%
O=C(Nc1sc2c(c1C(=O)N1CCOCC1)CCCCC2)c1cccnc1	3.5%
Cc1cccc(Nc2ccccc2C(=O)NCc2ccco2)c1C	12.2%
CCCS(=O)(=O)c1c(S(=O)(=O)CCC)c2c(N)cccn2c1C(=O)OC	5.2%
CCN1CCc2nc(N)sc2C1	89.1µM*

15 consecutive compounds from above:
SMILES	VDR inh
COCCn1c(-c2ccccc2Cl)nc2c(c(=O)c3ccccc3n2C)c1=O	-10.3%
CC(Oc1ccc(Br)cc1Br)C(=O)Nc1cccnc1 (centres undefined)	4.2%
COc1cc2c3nnc(-c4ccc(F)cc4)c-3cn(Cc3ccccc3F)c2cc1OC	42.0%[activator]
O=C(COC(=O)COc1ccc(Cl)cc1Br)NC1CC1	-7.9%
Cc1cccc(Oc2cc(N)cc([N+](=O)[O-])c2)c1	-13.6%
COc1ccc(C(=O)NC(=C(Cl)Cl)S(=O)(=O)c2ccc(C)cc2)cc1	-4.7%
Cc1ccc(CNC(=O)C2CC(c3ccccc3F)=NO2)cc1 (centres undefined)	-7.8%
CCc1ccccc1NC(=O)CSc1ncc2c(n1)-c1ccccc1N(Cc1ccc(C)cc1)S2(=O)=O	0.6%
Cc1ccc(NC(=O)c2cc(S(=O)(=O)Nc3ccc(C)cc3)cs2)cc1	-2.3%
CCOC(=O)c1c(NC(=O)CSc2nnc(C)s2)sc2c1CCN(C)C2	-13.2%
COc1ccc(CCNC(=O)c2cccnc2)cc1	3.0%
O=C1/C(=C\c2c(NCCOCCO)nc3ccccn3c2=O)SC(=S)N1Cc1ccco1	15.8%
CN(CC(=O)NCCCc1ccccc1)Cc1ccc(Br)cc1	-14.4%
CCCCC(=O)Nc1nn(CC(C)C)c2nc3ccccc3cc12	13.6%
O=C(Nc1sc2c(c1C(=O)N1CCOCC1)CCCCC2)c1cccnc1	3.5%

Other compounds follow.
SMILES	VDR inh
COC(=O)c1ccc(N/C=C\C(=O)c2ccc3c(c2)OCO3)cc1	u
COc1ccc(NS(=O)(=O)c2ccc3c(c2)NC(=O)CO3)cc1	0.7%
COc1ccc2cc(CN(Cc3cccnc3)S(=O)(=O)c3ccccc3)c(=O)[nH]c2c1	-8.1%
O=C(c1cccs1)N1CCC(C(=O)N2CCN(Cc3ccc4c(c3)OCO4)CC2)CC1	-13.6%
Cc1c(OC(C)C(=O)NCC2CCC(C(=O)O)CC2)ccc2c3c(c(=O)oc12)CCCC3 (centres undefined)	20.6%
FC(F)Oc1ccc(NC(=S)NC2CCCCCCC2)cc1	13.3%
CC(=O)Nc1ccc(S(=O)(=O)Nc2nc3ccccc3nc2Nc2ccc(O)c(C(=O)O)c2)cc1	-9.4%
COc1ccc(S(=O)(=O)N2CCN(Cc3ccccc3)CC2)c(C)c1	-10.5%
COc1ccc(C(=O)NNC2=NS(=O)(=O)c3ccccc32)cc1OC	-2.2%
CCCCOc1ccc(C(=O)NCCc2ccccc2)cc1	-5.3%
O=C(NCCCCC(NC(=O)c1ccc([N+](=O)[O-])cc1)C(=O)O)c1ccc([N+](=O)[O-])cc1 (centres undefined)	9.6%
O=C1CC(C(=O)Nc2cccc3ccccc23)C2(CCCC2)O1 (centres undefined)	-1.0%
O=C(CN1CCN(S(=O)(=O)/C=C/c2ccccc2)CC1)Nc1ccccc1N1CCOCC1	11.2%
Cc1cc(F)ccc1NC(=O)CCSc1nc(-c2ccco2)cc(C(F)(F)F)n1	6.9%
Cc1ccc2nc(CSc3nnc(NC(=O)COc4ccccc4)s3)cc(=O)n2c1	9.0%
Cc1ccc(N2CC(C(=O)N3CCOCC3)CC2=O)cc1Cl (centres undefined)	-18.9%
Cc1nc2cnc(N3CCNCC3)nc2n(CCC#N)c1=O	-12.7%
Cc1cc([N+](=O)[O-])ccc1NC(=O)Nc1ccc(F)cc1F	9.2%
O=C1CCC(=O)N1c1ccc(S(=O)(=O)N2CCCC2)cc1	2.9%
Cc1cccc(C2NC(=O)c3c(sc(C)c3C)N2)c1O (centres undefined)	-1.6%
Cc1ccccc1NC(=O)c1ccc(F)c(S(=O)(=O)N(C)C2CCCCC2)c1	9.6%
COc1ccc2[nH]c3c(=O)n(CCCCC(=O)NCCC(C)C)c(=S)[nH]c3c2c1	-25.5%
Cc1ccc(NS(=O)(=O)c2ccc(C(=O)NNC(=O)c3ccccc3O)cc2)cc1	9.7%
COc1ccccc1N1CCN(c2nnc(-c3ccc(F)cc3)c3ccccc23)CC1	-10.2%
O=C(OCC(=O)N(CCc1ccccc1)Cc1ccccc1)c1cccc(S(=O)(=O)N2CCOCC2)c1	10.6%
COc1cccc(NC(=O)c2oc3ccccc3c2NC(=O)c2ccc3c(c2)OCO3)c1	-1.2%
CCOc1ccc(NC(=O)c2ccccc2NC(=O)CN2CCCCCC2)cc1	-1.7%
COc1ccccc1CNC(=O)c1ccc(NC(=O)CC2SC(N3CCCC3)=NC2=O)cc1 (centres undefined)	1.0%
C[C@@H]1C(=O)O[C@H]2[C@H](O)[C@@]34[C@H]5CC(C(C)(C)C)[C@]36[C@H](OC(=O)[C@H]6O)O[C@]4(C(=O)O5)[C@@]12O (some centres undefined)	5.2%
O=C(c1cc2cc([N+](=O)[O-])ccc2oc1=O)N1CCOCC1	6.9%
Cc1ccc(CCNC(=O)CN2C(=O)COc3ccc(S(=O)(=O)N4CCC(C)CC4)cc32)cc1	6.8%&15.8%
COc1ccc(CCN2C(=O)CS/C2=N\NC(=O)c2ccc(C(C)(C)C)cc2)cc1OC	-9.4%
O=c1c2ccccc2n2c(-c3ccc(Cl)cc3)nnc2n1CCc1ccccc1	12.2%
O=S1(=O)N=C(N2CCOCC2)c2ccccc21	-1.0%
CCOP(=O)(OCC)c1nc(-c2cccc3ccccc23)oc1NCCc1ccc(OC)cc1	-10.8%
COCCC1CCCCN1Cc1cn(-c2ccccc2)nc1-c1ccc2c(c1)OCO2 (centres undefined)	0.9%
C=CCNC(=O)NC(=S)c1ccccc1	-4.4%
Cc1cc(Cl)ccc1OCC(=O)N1CCN(c2ncccn2)CC1	-3.0%
Cn1c(=O)c2[nH]c(CNCc3ccccc3Cl)nc2n(C)c1=O	-1.8%
CCC1(c2ccc(F)cc2)NC(=O)N(CC(=O)N2CC(=O)Nc3ccccc32)C1=O (centres undefined)	-13.1%
CCOC(=O)C1=C(C(C)=O)C(c2cccnc2)C(C#N)=C(N)O1 (centres undefined)	-11.0%
CCOC(=O)c1[nH]c2ccccc2c1NC(=S)Nc1cc(C)ccc1C	-23.1%
O=c1c2[nH]cnc2n(-c2ccc(F)cc2)c(=O)n1Cc1ccccc1	-7.2%
COc1ccc(-c2noc(CN(C(=O)c3cc(OC)c(OC)cc3OC)C(C)C)n2)cc1	-12.1%
Cc1ccccc1-c1nc(CS(=O)(=O)CC(=O)NC2CCCC2)c(C)o1	-8.6%
COc1cccc(CC(=O)Nc2ccc(-c3nc4ccccc4s3)cc2Cl)c1	12.5%
COC(=O)c1cc(C(=O)Nc2nnc(CC(C)(C)C)s2)cc([N+](=O)[O-])c1	-14.8%
COc1cc(CC(=O)O)ccc1OCc1ccccc1	-8.7%
CCCc1ccc(OCc2ccc(C(=O)N3CCSCC3)o2)cc1	-14.7%
CCOC(=O)c1ccc(N2C=C(C(=O)OC)C(c3cccc(O)c3)C(C(=O)OC)=C2)cc1	-12.0%
Cc1ccc(OCc2nnc(SCc3ccc(C#N)cc3)n2-c2ccc(C)cc2)cc1	-12.3%
COCCCNS(=O)(=O)c1ccc(OC)c(Cl)c1Cl	1.1%
COc1cc(-c2noc(-c3ccc(NC4CCCC4)c([N+](=O)[O-])c3)n2)cc(OC)c1OC	13.0%
CCOC(=O)c1c(C)[nH]c(C)c1C(=O)COC(=O)c1ccc(S(=O)(=O)N(CC)CC)cc1	1.6%
Cc1c(C(C)C)c(=O)n(-c2ccc(S(=O)(=O)NC3CCCCC3)cc2)n1C	-14.5%
CC12CCC(=O)N1C(C(=O)Nc1ccc(SC(F)F)cc1)CS2 (centres undefined)	11.0%
O=C(c1ccc(N2CCCCC2)c([N+](=O)[O-])c1)N1CCOCC1	5.6%
Cc1cc(Cl)c(S(=O)(=O)N2CCCC2)cc1OCC(=O)NC1CCCCC1	15.3%
Cc1cc(=O)[nH]c(N/N=C/c2ccc(O)c(O)c2)n1	1.0%
COc1ccc(NC(=O)CCCNC(=O)c2ccc(Cl)cc2)cc1OC	5.4%

(more compounds)
SMILES	VDR inh
C=COCCNC(=O)Nc1ccc(Cl)c(Cl)c1	-2.5%
CCOC(=O)C1CCCN(C(=O)CNC(=O)c2nn(-c3ccc(OC)c(Cl)c3)c(=O)c3ccccc23)C1 (centres undefined)	3.5%
COc1ccc(NC(=O)NCc2ccccn2)c(OC)c1	-3.8%
C[C@H](CO)N1C[C@H](C)[C@@H](CN(C)Cc2ccc(-c3ccccc3)cc2)Oc2c(NC(=O)Nc3ccc4c(c3)OCO4)cccc2C1=O	u
Cc1cc(C)n(CC(=O)N/N=C/c2c[nH]c3ccccc23)n1	3.1%
CCCOc1cccc(C(=O)N(Cc2ccco2)C2CCS(=O)(=O)C2)c1 (centres undefined)	-9.4%
COc1ccc(S(=O)(=O)N(CCc2ccccc2)CC(=O)NCc2ccc(C)cc2)cc1	-12.8%
COCCn1c(=S)[nH]c2cc(C(=O)N3CCc4ccccc4C3)ccc2c1=O	u
O=C(CCS(=O)(=O)c1cc(Br)cc2c1N(C(=O)C1CC1)CC2)N1CCN(c2ccc(F)cc2)CC1	-2.6%
CCn1cc(C(=O)O)c(=O)c2cc(F)c(N3CCN(S(=O)(=O)c4ccc5c(c4)OCCO5)CC3)cc21	-11.3%
Cc1ccc(NC(=O)CSc2nnc(C)c(=O)n2N)cc1	8.1%
COc1ccc(C(=O)N2CCC3(CC2)CCN(c2ncccn2)CC3)cc1	3.1%
COC(=O)c1cn[nH]c1NC(=S)Nc1ccc(Cl)c(Cl)c1	-18.2%
Cc1c(-c2ccccn2)c(=O)[nH]n1-c1ccc(F)cc1	-21.7%
O=c1c(Cc2c(F)cccc2Cl)c(O)ccn1CCCn1ccnc1	10.0%
CCOC(=O)N1CCN(C(=O)CCN2C(=O)COc3ccc(C)cc32)CC1	0.3%
